# FEN1 inh = qHTS Assay for the Inhibitors of Human Flap endonuclease 1 (FEN1) | Recombinant FEN1 flap cleavage, fluorescence, 15 min | Potency, µM (top dose mostly 114 µM), for the others: top-dose activity change, negative = inhibition, actives largely listed as inhibitors | P39748 | AID 588795, 2011 | 0.35% of 390,000 active; also: nearly all actives have a fitted effect of over 65% in size
#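 Recombinant FEN1 (10 nM) was preincubated with pin-transferred compounds for 15 min at room temperature, then flap DNA substrate (50 nM final) was added. Plates were read at 0 and 15 min, and normalized concentration–response data were fitted to a four-parameter Hill equation.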
# GCN5L2 inh = qHTS Assay for Inhibitors of GCN5L2. Histone acetyltransferase KAT2A (Homo sapiens), Q92830. GCN5L2 HAT assay, ThioGlo1 CoA-SH fluorescence. Potency, µM (highest dose often 58.9 µM), for the others: top-dose activity change, negative = inhibition, actives largely listed as inhibitors. 0.21% of 390,000 active. AID 504327, 2011
# Target sequence (Q92830 whole entry, looked up): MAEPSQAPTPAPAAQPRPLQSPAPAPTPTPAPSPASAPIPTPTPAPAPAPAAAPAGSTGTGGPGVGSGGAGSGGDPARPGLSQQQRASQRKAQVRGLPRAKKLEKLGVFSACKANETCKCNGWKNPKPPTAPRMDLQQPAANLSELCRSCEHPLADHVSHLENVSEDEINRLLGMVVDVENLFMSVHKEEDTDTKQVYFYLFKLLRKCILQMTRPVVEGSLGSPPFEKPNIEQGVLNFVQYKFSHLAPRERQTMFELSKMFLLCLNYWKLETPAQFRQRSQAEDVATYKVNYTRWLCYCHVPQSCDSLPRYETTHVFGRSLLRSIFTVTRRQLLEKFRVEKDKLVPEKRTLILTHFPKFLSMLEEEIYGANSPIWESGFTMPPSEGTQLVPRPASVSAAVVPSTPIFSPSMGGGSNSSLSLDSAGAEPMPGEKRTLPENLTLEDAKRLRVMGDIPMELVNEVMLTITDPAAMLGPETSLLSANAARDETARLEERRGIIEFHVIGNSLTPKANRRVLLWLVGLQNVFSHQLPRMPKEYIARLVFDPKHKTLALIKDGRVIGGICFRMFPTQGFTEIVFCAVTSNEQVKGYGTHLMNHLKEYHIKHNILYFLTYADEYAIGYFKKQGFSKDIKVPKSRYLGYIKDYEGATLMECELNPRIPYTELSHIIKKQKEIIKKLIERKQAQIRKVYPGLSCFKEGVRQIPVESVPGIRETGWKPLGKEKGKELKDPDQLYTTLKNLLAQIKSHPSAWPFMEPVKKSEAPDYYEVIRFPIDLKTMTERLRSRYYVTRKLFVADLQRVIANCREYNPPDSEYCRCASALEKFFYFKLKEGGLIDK
#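 Preincubate 20nM GCN5L2 with compound 15 min, RT → add 50uM ThioGlo1 + 75uM H3(1-25) + 70uM acetyl-CoA → read fluorescence 0 and 20 min. Primary qHTS; fluorescent artifacts likely.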
# Numbers without * were called inactive; ? = inconclusive; nt = no result given; & = joins results of further samples; [ ] = dose if it differs, or a comment. Calls follow the shape of the dose curve; as a rule, active = well fitted curve in the direction sought with a large enough effect; inconclusive = small, poorly fitted or top-dose-only effect, or another doubt; inactive = no such curve, though single readings can be large; an effect the other way counts as inactive or inconclusive. % is scaled to controls: 0 for no effect and ±100 for the full control effect; potency is read from the fitted curve at half-maximal effect.
SMILES,FEN1 inh,GCN5L2 inh
O=C(Cc1ccc(Br)cc1)N1CCN(c2ccccc2O)CC1,2%,-4%
CSc1ccc(/C=C(\NC(=O)c2ccccc2)C(=O)NCCN2CCOCC2)cc1,-3%,-2%
Cc1nc(-c2cc(-c3nc(-c4ccc(C(F)(F)F)cc4)no3)no2)cs1,9%,-9%
CC(=O)Nc1ccc(NC(=O)COC(=O)c2ccccn2)cc1,-4%,19%
CC(=O)N1CCN(C(=O)c2ccc(Oc3ccccc3)cc2)CC1,6%,-3%
Cc1nn(Cc2nnc(SCC(=O)Nc3cccc(C(F)(F)F)c3)n2C)c(C)c1[N+](=O)[O-],1%,-1%
C[n+]1cccc(/C=N/Nc2nc(Cl)c(C#N)c(Cl)c2Cl)c1,-14%,-5%
COc1ccc(CCNC(=O)CSc2nc3[nH]ncc3c(=O)[nH]2)cc1OC,-2%,6%
CSc1ccc(/C=N/N2CCN(Cc3ccccc3)CC2)cc1,6%,-8%
CCCc1nnc(SCC(=O)N2CCOCC2)n1Cc1ccco1,7%,1%
Cc1occc1C(=O)NNC(=O)CN1C(=O)NC2(CCCCC2)C1=O,-1%,2%
CCN(C(=O)CN1C(=O)S/C(=C\c2cccc(Cl)c2)C1=O)C1CCS(=O)(=O)C1 (stereo not drawn),11%,-2%
C=CCSC(=S)NC1CCS(=O)(=O)C1 (stereo not drawn),9%,-2%
CCCCCn1c(SCCc2ccccc2)nc2c1c(=O)[nH]c(=O)n2C,3%,2%
COCCCN1C(=O)C(=O)/C(=C(/O)c2ccccc2)C1c1ccc(N(C)C)cc1 (stereo not drawn),-13%,-1%
Cc1ccc(S(=O)(=O)CC(C)N2CCN(C3CCCCC3)CC2)cc1 (stereo not drawn),1%,0%
CCOCCCN(C(=O)c1ccco1)C(C(=O)NC1CCCC1)c1cccc(OC)c1OC (stereo not drawn),0%,-6%
Cc1cc(C)nc(SCc2nnc(SCC(=O)Nc3nccs3)n2Cc2ccco2)n1,1%,3%
COc1cc2[nH]c(=S)nc(NCc3cccnc3)c2cc1OC,3%,-6%
CCOc1cc(C(=O)CCC(=O)OCC(=O)Nc2ccc(C)c(S(=O)(=O)N(C)C)c2)ccc1O,11%,-18%
COc1ccc(OCC(O)CNC(=O)c2ccccc2C(=O)O)cc1 (stereo not drawn),-3%,2%
Cc1cccc(NC(=O)CSc2nnc(CNC(=O)c3ccco3)o2)c1C,2%,-5%
COc1ccc(NC(=O)CN2CCN(C(=O)N3CCOCC3)CC2)cc1,6%,3%
Cc1ccc(O)c(NC(=O)C2CCCCC2)c1,12%,-1%
CCOc1ccc(NC(=O)C/C(C)=N/NC(=O)COc2ccc(Br)cc2C)cc1,-22%,-8%
CN(C)CCCn1c2c(c(SCC(=O)Nc3cccc4ccccc34)nc1=O)CCCC2,12%,-1%
COc1ccc(/C=C/C(=O)OCC(=O)c2ccc(S(=O)(=O)N3CCCCC3)cc2)cc1OC,8%,-5%
CCc1ccc(OCC(=O)N(C)C)c(Br)c1,-4%,2%
Cc1ccc(Nc2ccc(C(=O)O)cc2N)cc1,-5%,-11%
O=C(Cn1cccc1)N1CCN(c2ccc(F)cc2)CC1,-11%,-11%
Cc1c(C(c2ccc(F)cc2)c2c(C)n(C)n(-c3ccccc3)c2=O)c(=O)n(-c2ccccc2)n1C,2%,-8%
CC(C)c1ncc(C(O)c2ccccc2)n1C (stereo not drawn),-2%,-1%
CC(=O)N/C(=C\c1ccccc1)C(=O)OCC(=O)N(C)C1CCCCC1,7%,31%[activator]
Cc1cccc(C(=O)NNC2=CC(=O)CC(C)(C)C2)c1O,-1%,-3%
Cc1ccc2nc(N/C(=N/S(=O)(=O)c3ccc(F)cc3)c3ccccc3)sc2c1,14%,-4%
Cn1c(Cn2cnc3ccccc32)nc2ccccc21,12%,-8%
C/C(=N\NC(=O)c1ccc2c(c1)OCO2)c1ccc(C(=O)O)s1,12%,-2%
COc1ccc(Cl)cc1NC(=O)CN1CCCC1,-4%,4%
CCOC(=O)CC1=NS(=O)(=O)c2ccccc2N1,10%,-1%
COc1ccc(S(=O)(=O)NCC(c2ccco2)N2CCOCC2)cc1 (stereo not drawn),-7%&15%,-9%&-4%
COc1ccc(Oc2c(C(F)(F)F)oc3cc(OCC(=O)O)ccc3c2=O)cc1,-2%,?
O=S(=O)(Nc1ncnc2scc(-c3ccc(F)cc3)c12)c1cc(F)ccc1F,-13%,-12%
O=S(=O)(Nc1ccncc1)c1cc(Cl)ccc1Cl,7%,-6%
O=C(COC(=O)C1CCCC1)NCc1ccc(Cl)cc1,12%,-17%
O=C(NN=C(Cc1ccccc1)Cc1ccccc1)c1ccccc1O,1%,-3%
Cc1cc(C)nc(SCCCNCc2ccccc2)n1,-5%,-5%
CCc1ccc(NC(=O)c2cc(-c3ccco3)on2)cc1,0%,-1%
O=C(c1cc(-c2ccccc2)nn1-c1ccccc1)N1CCN(S(=O)(=O)c2c(F)cccc2F)CC1,-9%,0%
O=c1c(-c2ccc(F)cc2)nc2cnc(Oc3ccccc3)nc2n1C1CC1,nt,-3%
Cc1ccc(NC(=O)N2CCc3ccccc3C2)cc1,-16%,1%
CC(=O)c1c(-c2ccccc2)[nH]c2ccccc12,0%,-8%
CC(=O)Nc1cccc(/C(C)=N/NC(=O)c2cccs2)c1,-17%,-6%
Cc1cc(Cl)cc(C)c1OCCOCCNCc1ccccc1,-4%,0%
CCn1nnnc1-c1ccc(OC)c(S(=O)(=O)Nc2ccc(S(N)(=O)=O)cc2)c1,-6%,-4%
CN1CCN(Cc2nc3c(c(=O)n(C)c(=O)n3C)n2Cc2cccc3ccccc23)CC1,-5%,-4%
Cc1ccc(NC(=O)Cn2nnc3ccccc3c2=O)cc1C,-1%,-12%
Cn1cnnc1SCC(=O)c1ccc(O)c(O)c1,-18%,-4%
Cc1cccc(N2CCN(S(=O)(=O)c3cn(C)cn3)CC2)c1C,18%,-4%
NC(=O)C1=C[C@@H](c2coc3ccccc3c2=O)C[C@@H](OCCCCO)O1,5%,-1%
CC(C)Oc1ccc(C(=O)N2CCCc3ccccc32)cc1,-14%,-4%

# Ordered by number of heavy atoms (smallest number first): some entries from above
SMILES,FEN1 inh,GCN5L2 inh
O=S(=O)(Nc1ccncc1)c1cc(Cl)ccc1Cl,7%,-6%
O=C(COC(=O)C1CCCC1)NCc1ccc(Cl)cc1,12%,-17%
CCc1ccc(NC(=O)c2cc(-c3ccco3)on2)cc1,0%,-1%
CC(C)Oc1ccc(C(=O)N2CCCc3ccccc32)cc1,-14%,-4%
Cc1cccc(N2CCN(S(=O)(=O)c3cn(C)cn3)CC2)c1C,18%,-4%
O=C(NN=C(Cc1ccccc1)Cc1ccccc1)c1ccccc1O,1%,-3%
O=S(=O)(Nc1ncnc2scc(-c3ccc(F)cc3)c12)c1cc(F)ccc1F,-13%,-12%
COc1ccc(Oc2c(C(F)(F)F)oc3cc(OCC(=O)O)ccc3c2=O)cc1,-2%,?
CN1CCN(Cc2nc3c(c(=O)n(C)c(=O)n3C)n2Cc2cccc3ccccc23)CC1,-5%,-4%
O=C(c1cc(-c2ccccc2)nn1-c1ccccc1)N1CCN(S(=O)(=O)c2c(F)cccc2F)CC1,-9%,0%

# Going on with the list:
SMILES,FEN1 inh,GCN5L2 inh
COc1ccc(-n2cc(CNC3CCC(O)CC3)c(-c3cccc(F)c3)n2)cc1 (stereo not drawn),9%,-14%
COc1ccc(/C=N/NC(=O)c2cccc(OC(F)(F)C(F)F)c2)c(OC)c1OC,9%,-3%
O=C(Nc1ccccc1F)NC1CCCCCCC1,-12%,-8%
CCSc1nnc(-c2ccc(S(=O)(=O)N3CCOCC3)cc2)n1C,17%,-2%
COc1ccc(NC(=O)CCCCCN2C(=O)CCC2=O)cc1Cl,9%,0%
CCOC(=O)C1=C(CSCC(=O)OC)NC(=O)NC1c1cc(C)ccc1C (stereo not drawn),0%,-14%
C[C@]12CC[C@@H]3c4ccc(O)cc4CC[C@H]3[C@@H]1C[C@@H](O)[C@@H]2O[C@@H]1O[C@H](C(=O)O)[C@@H](O)[C@H](O)[C@H]1O,3%,-2%
CCOc1ccccc1NC(=O)COC(=O)Cc1ccc(-c2ccccc2)cc1,4%,1%
CC(Sc1ccccc1)C(=O)N/N=C/c1cccnc1 (stereo not drawn),-7%,-4%
O=C(c1ccc(Cl)cc1[N+](=O)[O-])N(Cc1ccccc1)Cc1ccccc1,nt,-6%
CCC(C(=O)OCC(=O)N(C)c1c(N)n(Cc2ccccc2)c(=O)[nH]c1=O)c1ccccc1 (stereo not drawn),2%,6%
COc1c(Cl)cccc1-c1cn2ccccc2n1,-20%,-5%
COc1ccc(OCCN(C)Cc2ccccc2)cc1,-21%,2%
CCOC(=O)c1cnc(SCc2cccc(C)c2)nc1N,-12%,-25%
O=C(NCC1CCCO1)C1CCN(S(=O)(=O)c2cccnc2)CC1 (stereo not drawn),0%,1%
CN=Cc1cc(-c2ccccc2)sc1O,6%,-3%
CCn1c(SCC(N)=O)nnc1-c1ccc(OC)c(OC)c1,0%,-10%
O=C(Nc1ccc(Cl)cn1)c1ccc2c(c1)OCCO2,-5%,-1%
CCOc1ccccc1CN1CCC(N2CCC(C(=O)NC3CC3)CC2)CC1,1%,-6%
COC(=O)c1c(C)oc2cc(Br)c(OCC(=O)C(C)(C)C)cc12,5%,0%
NC(=O)N/N=C\c1cccs1,12%,1%
Cc1ccc(C)c(N(C)S(=O)(=O)c2ccc3c(c2)oc(=O)n3C)c1,-14%,-14%
Clc1ccc(Nc2ncn[nH]2)cc1,2%,-3%
O=C(CN1CCN(Cc2cccc(Cl)c2)C1=O)NCC1CCCO1 (stereo not drawn),5%,1%
Cc1nn(C(C)(C)C)c(NC(=O)c2ccc(Cl)cc2Cl)c1Br,-16%,-1%
C#CCN1CC(C)/C(=N/O)CC1C (stereo not drawn),4%,3%
O=S(=O)(Cc1noc(-c2ccccc2Cl)n1)c1ccccn1,0%,?
CCOC(=O)CCc1c(C)c2ccc(OCc3nn[nH]n3)c(C)c2oc1=O,1%,-3%
CCn1c(Cc2ccccc2)nnc1SCC(=O)Nc1ccc(OC)cc1,5%,-2%
Cc1cccn2c(=O)c(/C=C(\C#N)C(=O)NCc3ccco3)c(N3CCC(C(N)=O)CC3)nc12,-1%,-2%
O=C(Nc1cccc(-c2nc3ccccc3s2)c1)c1cccs1,-16%,-10%
COc1ccccc1CNc1nc(SC)ncc1CO,-2%,2%
COc1cc(OC)c(C2C(C(=O)O)c3ccccc3C(=O)N2C)cc1OC (stereo not drawn),2%,-5%
C/C(=N\Nc1ccc(C(F)(F)F)cc1[N+](=O)[O-])C(C)C,-1%,-24%
CCCCC(=O)Nc1ccc(NC(=O)c2cc(OC)c(OC)c(OC)c2)cn1,4%,-1%
Cc1cccc(CN2CCOCCS2(=O)=O)c1,0%,-5%
CC(NC(=O)CCc1ccc(S(=O)(=O)NC2CCCCC2)cc1)c1ccccc1 (stereo not drawn),5%,-1%
O=C(O)c1ccccc1-c1ccccc1C(=O)Nc1ccccc1,1%,-1%
COC(=O)C1=C(NC(=O)c2cccs2)CCS1,nt,0%
CC(=O)N(c1ccc(C(F)(F)F)cc1)S(=O)(=O)c1ccc(N2C(=O)CCC2=O)cc1,1%,1%
COC(C[C@@H]1O[C@@H]1[C@@H](O)[C@H](C)OCc1ccccc1)OC,-5%,-7%
CSc1ccccc1NC(=O)c1c(Br)cnn1C,-4%,-2%
CCc1ccc(NC(=O)C2CCN(S(=O)(=O)c3c(C)noc3C)CC2)cc1,-9%&-4%,-2%&0%
CCN1CCN(c2ccc(NC(=O)c3ccc4c(c3)OCO4)cc2)CC1,6%,-4%
COc1cccc(CN(C)S(=O)(=O)c2ccc3c(c2)OCCO3)c1,-13%,-1%
CC(NCc1ccc2c(c1)OCO2)C(=O)N1CCc2ccccc21 (stereo not drawn),7%,-5%
Cc1ccc(CNC(=O)C2CCC(=O)N(CCc3cccc(F)c3)C2)s1 (stereo not drawn),-2%,-9%
O=C(c1cc(COc2c(F)cccc2F)on1)N1CCN(C2CCCCC2)CC1,9%,-5%
Cc1ccsc1/C=N/NC(=O)Cn1nc(C)c([N+](=O)[O-])c1C,25%,-3%
CNC(=O)CSc1nnc(-c2ccc3c(c2)OCO3)n1C,-2%,0%
O=C(Nc1cccnc1)/C(N=Nc1cccnc1)=C(\O)c1ccccc1,-4%,-16%
CCNC(=S)NNC(=O)c1cccnc1,-6%,-5%
CCOC(=O)c1cccc(N/C=C/C(=O)c2ccc(OC)c(OC)c2)c1,-19%,-9%
CC(Sc1ncn[nH]1)C(=O)NCc1ccccc1 (stereo not drawn),-3%,-5%
Cn1nc(-c2ccccc2)cc1NC(=O)c1ccccc1,-9%,-6%
COc1ccc(N(C(=O)c2ccco2)C(C(=O)NC2CCCC2)c2cccs2)c(OC)c1 (stereo not drawn),-15%,-7%

# Screening results (PubChem BioAssay)

# The list is partial; most or all hits stand in other tables.
